Assay outcomes as filed in PubChem.
GCN5L2 inh – qHTS Assay for Inhibitors of GCN5L2 | Histone acetyltransferase KAT2A (Homo sapiens), Q92830 | GCN5L2 HAT assay, ThioGlo1 CoA-SH fluorescence | Potency, µM (titrated, usually from 58.9 µM), without a hit: top-dose activity change, negative = inhibition, actives largely listed as inhibitors | 390,000 compounds, 0.21% hits; active means well fitted inhibition curve with a large enough effect; inconclusive means small, poorly fitted or top-dose-only effect, or another doubt; inactive means no such curve, though single readings can be large or run the other way
Target sequence (Q92830 whole entry, looked up): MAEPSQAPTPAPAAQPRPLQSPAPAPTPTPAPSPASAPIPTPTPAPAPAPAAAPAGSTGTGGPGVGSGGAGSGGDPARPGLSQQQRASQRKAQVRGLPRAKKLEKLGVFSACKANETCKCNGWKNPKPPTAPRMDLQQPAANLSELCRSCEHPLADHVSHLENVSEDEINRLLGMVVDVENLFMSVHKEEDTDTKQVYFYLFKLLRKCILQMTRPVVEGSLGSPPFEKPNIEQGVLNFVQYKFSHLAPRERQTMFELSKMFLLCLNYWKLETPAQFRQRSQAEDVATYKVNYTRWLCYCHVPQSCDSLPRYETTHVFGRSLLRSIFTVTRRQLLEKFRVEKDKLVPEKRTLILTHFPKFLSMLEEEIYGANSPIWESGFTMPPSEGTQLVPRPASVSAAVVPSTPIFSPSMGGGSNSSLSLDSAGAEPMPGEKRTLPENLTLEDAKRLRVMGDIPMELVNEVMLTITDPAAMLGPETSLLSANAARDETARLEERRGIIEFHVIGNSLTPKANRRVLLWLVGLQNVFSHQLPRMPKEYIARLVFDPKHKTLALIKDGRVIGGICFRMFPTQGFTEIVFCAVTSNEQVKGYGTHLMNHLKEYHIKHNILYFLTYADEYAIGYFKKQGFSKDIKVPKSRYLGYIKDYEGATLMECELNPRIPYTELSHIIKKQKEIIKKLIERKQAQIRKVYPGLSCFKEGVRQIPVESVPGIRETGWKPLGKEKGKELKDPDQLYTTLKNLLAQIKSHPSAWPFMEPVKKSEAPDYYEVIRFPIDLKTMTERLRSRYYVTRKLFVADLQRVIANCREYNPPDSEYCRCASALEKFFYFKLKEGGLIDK
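GCN5L2 (20 nM) in 50mM HEPES pH 7.5, 0.1mM EDTA, 0.01% Tween-20 preincubated 15 min with compounds at room temperature. Reaction started with H3(1-25) 75uM, acetyl-CoA 70uM, ThioGlo1 50uM; CoA-thiol fluorescence (Ex340/Em540) read at 0 and 20 min.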
Active calls of the source: *; & = joins results of further samples. On the % scale 0 is the no-effect control and ±100 the full control effect; potency means the concentration at half of the fitted maximal effect. An excerpt; most or all hits stand in other tables.

`CCNc1nc(NCc2ccccc2)nc(SCC(=O)Nc2ccccc2)n1` gave GCN5L2 inh -5%.
CCOc1ccc(S(=O)(=O)NCc2cccnc2)cc1NC(=O)c1ccccc1F was read as GCN5L2 inh -5%.
Screening CN(C)C(=O)N1CCCC(C(=O)NCc2ccccc2Cl)C1 (centres undefined) returned GCN5L2 inh -4%.
`O=C1CC(c2ccc(S(=O)(=O)N3CCCCC3)cc2)CN1` (centres undefined) gave GCN5L2 inh -5%.
For CCN(C(=O)N1CCOCC1)c1ccccc1C the results were GCN5L2 inh -9%.
`COc1ccc2ccccc2c1CNc1nnnn1C` gave GCN5L2 inh -15%.
CCOc1ccc(/C(C)=N/NC(=O)C(OC)c2ccccc2)cc1 (centres undefined) was read as GCN5L2 inh -6%.
O=C(Oc1ccccc1)c1cc2ccccc2o1 was read as GCN5L2 inh -7%.
For Cc1ccc(NC(=O)CN2C(=O)/C(=C3\SC(=S)N(C4CCS(=O)(=O)C4)C3=O)c3ccccc32)cc1 (centres undefined) the results were GCN5L2 inh 0%.
Screening Cc1ccccc1N1CC2=C(C1=O)C(c1ccccc1)NC(=O)N2C (centres undefined) returned GCN5L2 inh -15%.
Screening CCOC(=O)C1(C)NC(c2ccc(OC)cc2OC)C2C(=O)N(c3cccc(OC)c3)C(=O)C21 (centres undefined) returned GCN5L2 inh 2%.
Cc1nnc(Nc2ccc(C(=O)NCCO)cc2)c2ccccc12 was read as GCN5L2 inh -9%.

The closing six records of the section before open the next one.
CCOc1ccc(/C(C)=N/NC(=O)C(OC)c2ccccc2)cc1 (centres undefined) was read as GCN5L2 inh -6%.
O=C(Oc1ccccc1)c1cc2ccccc2o1 was read as GCN5L2 inh -7%.
For Cc1ccc(NC(=O)CN2C(=O)/C(=C3\SC(=S)N(C4CCS(=O)(=O)C4)C3=O)c3ccccc32)cc1 (centres undefined) the results were GCN5L2 inh 0%.
Screening Cc1ccccc1N1CC2=C(C1=O)C(c1ccccc1)NC(=O)N2C (centres undefined) returned GCN5L2 inh -15%.
Screening CCOC(=O)C1(C)NC(c2ccc(OC)cc2OC)C2C(=O)N(c3cccc(OC)c3)C(=O)C21 (centres undefined) returned GCN5L2 inh 2%.
Cc1nnc(Nc2ccc(C(=O)NCCO)cc2)c2ccccc12 was read as GCN5L2 inh -9%.
For CCOC(=O)c1ccccc1OCc1cc(/C=N/n2cncn2)ccc1OC the results were GCN5L2 inh -1%.
`COc1ccc(S(=O)(=O)NCCCN2CCCC2=O)cc1OC` gave GCN5L2 inh -3%.
For O=C(Cn1c(=O)n(-c2ccccc2)c(=O)c2sc3ccccc3c21)NC1CCCC1 the results were GCN5L2 inh -6%.
`CCN1CCN(CCCNC(=O)C2c3ccccc3C(=O)N(c3ccc(OC)cc3)C2c2ccc(OC)cc2)CC1` (centres undefined) gave GCN5L2 inh -7%.
For COc1cc2[nH]c(=S)n(C3CCCC3)c(=O)c2cc1OC the results were GCN5L2 inh -5%.
`CCOC(=O)C1=C(CC)OC(N)=C(C#N)C1c1ccc(OC)c(C)c1OC` (centres undefined) gave GCN5L2 inh -8%.
N#C/C(=C\c1cccs1)Sc1nc2ccccc2s1 was read as GCN5L2 inh -6%.
CCCCn1cc(S(=O)(=O)c2ccc(Cl)cc2)c(=O)c2cc(F)c(N3CCCC(C)C3)cc21 (centres undefined) was read as GCN5L2 inh inconclusive.
`CN(CCC#N)C(=O)CSc1ncnc2sc(-c3ccccc3)cc12` gave GCN5L2 inh -4%.
For c1cncc(-c2nnc(SCc3cccc4ccccc34)o2)c1 the results were GCN5L2 inh -8%.
Screening O=C(Cn1nc(C(=O)O)c2ccccc2c1=O)Nc1cc(Cl)cc(Cl)c1 returned GCN5L2 inh -6%.
For COc1ccc(CCNC(=O)c2nnn(-c3ccccc3OC)c2N)cc1OC the results were GCN5L2 inh -12%.
Screening COc1ccc(C)c2sc(=NC(=O)C(C)C)n(C)c12 returned GCN5L2 inh -7%.
Screening COC(=O)C(C(=O)Nc1ccccc1C)C1CCCC1 (centres undefined) returned GCN5L2 inh 1%.
O=C(Nc1nc2ccc(S(=O)(=O)N3CCCC3)cc2s1)c1ccco1 was read as GCN5L2 inh 1%.
For Cc1ccc(NC(=O)c2ccc(CN3CCN(C)CC3)cc2)cc1Nc1nccc(-c2cccnc2)n1 the results were GCN5L2 inh 15%&5%.
`C=CCn1c(=NC(=O)c2ccc(S(=O)(=O)N3CCc4ccccc4C3)cc2)sc2cc(S(N)(=O)=O)ccc21` gave GCN5L2 inh -10%.
For COc1ccccc1N1CN(S(=O)(=O)c2ccc(C)cc2)c2nc3ccccc3nc21 the results were GCN5L2 inh -7%.
For COc1ccc(C(=O)N(C)c2c(C)n(C)n(-c3ccccc3)c2=O)cc1OC the results were GCN5L2 inh 4%.
Screening Cc1ccc(-c2cc(C(=O)Nc3ccc4c(c3)OCCO4)c3ccccc3n2)cc1 returned GCN5L2 inh -27%.
`COc1cccc(Cn2nnc(C(=O)Nc3cc(C)ccc3C)c2N)c1` gave GCN5L2 inh -9%.
Screening O=C1C=C(NNC(=O)c2ccccc2Br)CCC1 returned GCN5L2 inh 1%.
Screening COC(C)(C)[C@]12CC(O)(c3ccccc3)ON1[C@H]1CCCCC1N2O (some centres undefined) returned GCN5L2 inh -1%.
`Cc1ccc(NS(=O)(=O)c2ccc3c(c2)OCCCO3)cc1S(=O)(=O)N1CCOCC1` gave GCN5L2 inh -1%.
For CC(C)N(C(=O)Cn1cc(SCC(=O)NCC2CCCO2)c2ccccc21)C(C)C (centres undefined) the results were GCN5L2 inh 1%.
O=C(CN1C(=O)NC2(CCCC2)C1=O)OCCOc1ccccc1Cl was read as GCN5L2 inh 1%.
`CCOC(=O)CN1C(=O)N(c2ccc(C)c(C)c2)S(=O)(=O)c2ccccc21` gave GCN5L2 inh -13%.
For O=C(c1ccc(F)cc1)n1nc(-c2cccnc2)nc1NCc1ccccc1 the results were GCN5L2 inh -7%.
CCOC(=O)CC12CN3CN(C1)CC(CC(=O)OCC)(C3)C2=O was read as GCN5L2 inh 1%.
NC(=O)C1(N2CCCCC2)CCN(c2nc(-c3ccc(Br)cc3)cs2)CC1 was read as GCN5L2 inh 1%.
Screening CC(=O)Oc1ccc2ccccc2c1C(NC(=O)Cc1ccccc1)c1ccccc1 (centres undefined) returned GCN5L2 inh 0%.
Screening COc1ccccc1NC(=O)CSCc1nc2ccccc2[nH]1 returned GCN5L2 inh 29%.
Clc1cccc(/C=N/Nc2ncnc3ccccc23)c1 was read as GCN5L2 inh -7%.
For O=C(Nc1ccncc1)C1CCC(CNS(=O)(=O)c2cccc3nsnc23)CC1 (centres undefined) the results were GCN5L2 inh 0%.
Screening CCOC(=O)c1[nH]c(C)c(CC(C)C)c1C returned GCN5L2 inh -7%.
COc1ccc(S(=O)(=O)NC2CCCCC2)c(C)c1C was read as GCN5L2 inh -3%.
CCOc1ccc(C(CC(=O)O)NC(=O)C(c2ccccc2)c2ccccc2)cc1OC (centres undefined) was read as GCN5L2 inh -8%.
Screening COC(=O)CCCC1=CC2=CC(=O)C(C)(OC(=O)c3cccs3)C(=O)C2=CN1CC(C)C (centres undefined) returned GCN5L2 inh -8%.
COc1cc(NC(=O)CSc2nccc(C)n2)c(C)cc1[N+](=O)[O-] was read as GCN5L2 inh -6%.
COC(=O)c1sc(NC(=O)CSc2nnnn2-c2ccc(C)cc2C)nc1C was read as GCN5L2 inh 1%.
For Cc1ccc(C)c(N(Cc2cc3ccc(C)cc3[nH]c2=O)C(=O)c2ccco2)c1 the results were GCN5L2 inh 1%.
For CCC1(c2ccc(Cl)cc2)NC(=O)N(Cc2ccc(C(=O)OC)cc2)C1=O (centres undefined) the results were GCN5L2 inh -16%.
For Cc1ccccc1NC(=O)c1sc2nc3n(c(=O)c2c1C)N=C(c1ccccc1)CS3 the results were GCN5L2 inh -6%.
For COc1ccccc1C(=O)NN=C1CCN(Cc2ccccc2)CC1 the results were GCN5L2 inh -5%.
Screening CN[C@H](C(=O)NC[C@H]1O[C@@H](n2cnc3c(N)ncnc32)[C@H](O)[C@@H]1O)[C@@H](C)OCc1ccccc1 returned GCN5L2 inh -1%.
`O=C1OCCN1C(=O)[C@H]1[C@H](c2ccc(F)cc2)C(c2ccc(F)cc2)=NN1c1ccccc1` gave GCN5L2 inh inconclusive.
Cc1ccc(/C=N/NC(=O)c2nnn(-c3nonc3N)c2CSc2ccc(Cl)cc2)cc1 was read as GCN5L2 inh 4%.
CCOC(=O)c1ccc(NC(=O)CCc2nc(-c3ccc(Cl)cc3)no2)cc1 was read as GCN5L2 inh -6%.
Screening Cc1nnc(NC(=O)c2ccc(-c3cccc(C(F)(F)F)c3)o2)s1 returned GCN5L2 inh 2%.
CCOc1cc(C=O)cc(Br)c1OCC(=O)NCCc1ccccc1 was read as GCN5L2 inh -3%.
`O=C(O)c1ccc(S(=O)(=O)N2CCC(NC(=O)C3CCCCC3)CC2)cc1` gave GCN5L2 inh 1%.
Screening Cc1nn(Cc2ccc(Cl)c(Cl)c2)c(C)c1NC(=O)c1cc(C2CC2)on1 returned GCN5L2 inh -15%.
For CCn1c(=O)c(=O)n(CC)c2cc(N3CCCCC3)c(NC(=O)c3ccccc3OC)cc21 the results were GCN5L2 inh -1%.
`O=C(Nc1c(Cl)ccc2nsnc12)c1ccco1` gave GCN5L2 inh 8%.
CCOCCCNC(=O)C1CCN(S(=O)(=O)N(CC(C)C)CC(C)C)CC1 was read as GCN5L2 inh -4%.
CCOc1cc(-c2nccc3cc(OC)c(OC)cc23)cc(OCC)c1OCC was read as GCN5L2 inh -6%&-17%.
For CCOc1cc(/C=C/C(=O)Nc2ccc(C(=O)NCCN(CC)CC)cc2)ccc1OCC(C)C the results were GCN5L2 inh 11%.
For O=C(Nc1ccc(Cl)cc1)N1CCC(c2ccccc2)C1 (centres undefined) the results were GCN5L2 inh -4%&-6%.
`CC(C)=CCCC(C)CN1CCC(n2nccc2NC(=O)c2ccccc2)CC1` (centres undefined) gave GCN5L2 inh -10%.
Cc1cc(NC(=O)c2c(-c3c(Cl)cccc3Cl)noc2C)n(C)n1 was read as GCN5L2 inh -3%.
O=C(CN1CCCC1)Nc1ccccc1C(=O)c1ccccc1 was read as GCN5L2 inh 1%.
`O=C(Nc1cccc(C(F)(F)F)c1)C(Sc1cccc[n+]1[O-])c1ccccc1` (centres undefined) gave GCN5L2 inh 1%.
Screening Cc1ccc(S(=O)(=O)NCC(=O)OCC(=O)Nc2ccccc2OC(F)F)cc1 returned GCN5L2 inh 3%.
CCCn1cc(CN2CCCC(C(=O)c3ccc4c(c3)OCO4)C2)c(C)n1 (centres undefined) was read as GCN5L2 inh -4%.
CCOC(=O)CC(=O)CSc1nnc(Cn2c(=O)sc3ccccc32)n1C was read as GCN5L2 inh 0%.
CCCc1nn(C)c(C(=O)Nc2ccc(Cl)cc2)c1Cl was read as GCN5L2 inh -1%.
Cc1ccc(NC(=O)CSc2nnc(CNC(=O)c3ccco3)n2C)c(C)c1 was read as GCN5L2 inh -3%.
Screening Cc1cc2c(cc1S(=O)(=O)CCC(=O)NC1CCC(C)CC1)OCC(=O)N2 (centres undefined) returned GCN5L2 inh -8%&-6%.
Screening O=C(NCc1cccc(Cl)c1)c1cnccn1 returned GCN5L2 inh 1%.
Cc1cc(-c2ccccc2)nc(SCC(=O)N2CCCC2)n1 was read as GCN5L2 inh -10%.
O=C(CN1CCC(NC(=O)Nc2ccccc2-c2ccccc2)CC1)NCc1ccco1 was read as GCN5L2 inh 1%.
For CC(C)(C)c1cc(C(=O)O)nn1-c1ccccc1 the results were GCN5L2 inh 0%.
Screening COc1cc(OC)c(NC(=O)c2ccc(F)cc2)cc1Cl returned GCN5L2 inh -5%.
For COc1ccc(NC(=O)Cc2c(F)c(F)c(F)c(F)c2F)cc1OC the results were GCN5L2 inh -14%.
`O=C(/C=C/c1cccs1)Nc1nncs1` gave GCN5L2 inh -4%.
`CC(=O)c1c(C)[nH]c(C(=O)N(C)C(c2ccccc2)c2ccccc2)c1C` gave GCN5L2 inh 1%.
For CC(C)C(=O)NC(C)C(c1cccs1)N1CCOCC1 (centres undefined) the results were GCN5L2 inh -4%.
Screening CC(C)CCNC(=O)c1cn(C)c2ccc(S(=O)(=O)N3CCCC3)cc2c1=O returned GCN5L2 inh -26%&-1%.
`Cc1ccc(CNC(=O)CN(C2CCCCC2)S(C)(=O)=O)cc1` gave GCN5L2 inh 3%.
Screening Cc1ccc(OCC(=O)N(C)Cc2ccccc2)c([N+](=O)[O-])n1 returned GCN5L2 inh 5%.
Cc1ccccc1C1CC(c2ccccc2OC(F)F)Nc2ncnn21 (centres undefined) was read as GCN5L2 inh 4%.
For CCOC(=O)c1c(C)[nH]c(C(=O)N2CCCC(C(=O)c3ccccc3OC)C2)c1C (centres undefined) the results were GCN5L2 inh 3%.
For Cc1c(CCOC(=O)c2cc([N+](=O)[O-])ccc2Cl)sc[n+]1CCCCS(=O)(=O)[O-] the results were GCN5L2 inh -5%.
For COCCNC(=O)C1CC2Cn3c(nc4cc(C)c(C)cc43)C2N1C (centres undefined) the results were GCN5L2 inh 14%.

Not a retest: six of the compounds above.
`Cc1ccc(CNC(=O)CN(C2CCCCC2)S(C)(=O)=O)cc1` gave GCN5L2 inh 3%.
Screening Cc1ccc(OCC(=O)N(C)Cc2ccccc2)c([N+](=O)[O-])n1 returned GCN5L2 inh 5%.
Cc1ccccc1C1CC(c2ccccc2OC(F)F)Nc2ncnn21 (centres undefined) was read as GCN5L2 inh 4%.
For CCOC(=O)c1c(C)[nH]c(C(=O)N2CCCC(C(=O)c3ccccc3OC)C2)c1C (centres undefined) the results were GCN5L2 inh 3%.
For Cc1c(CCOC(=O)c2cc([N+](=O)[O-])ccc2Cl)sc[n+]1CCCCS(=O)(=O)[O-] the results were GCN5L2 inh -5%.
For COCCNC(=O)C1CC2Cn3c(nc4cc(C)c(C)cc43)C2N1C (centres undefined) the results were GCN5L2 inh 14%.
